rRNA inh HTS – selective bacterial rRNA inhibition in E. coli. E. coli WT GFP vs humanized-ribosome RFP mutants, fluorescence, 24 h; active compounds read low; DMSO median 0, no signal -100. GFP signal change (wild-type ribosome), % (concentration not given with the values). hit rate 1.6% among 350,000;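 active = significant combined selectivity score with lowered wild-type GFP, culture density cut under 30%, mutant RFP and density less affected; inactive = any of these conditions unmet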; also: one replicate is shown; some compounds called inactive have numbers as strong as hits
AF4-AF9 inh – MLL-AF4/AF9 protein interaction inhibition; P42568; AlphaScreen, biotin-AF4 peptide binding to FLAG-AF9; inhibition, % at 10 µM; hit rate 0.47% among 350,000;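 active = every replicate reaching a set inhibition limit, whatever the replicate mean, cut at about 25% in these data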;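 also: 0% = plate neutral control median and 100% = total signal loss; the record names both 10 and 1 µM as test concentration; the first replicate is given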
Target sequence (P42568 whole entry, looked up): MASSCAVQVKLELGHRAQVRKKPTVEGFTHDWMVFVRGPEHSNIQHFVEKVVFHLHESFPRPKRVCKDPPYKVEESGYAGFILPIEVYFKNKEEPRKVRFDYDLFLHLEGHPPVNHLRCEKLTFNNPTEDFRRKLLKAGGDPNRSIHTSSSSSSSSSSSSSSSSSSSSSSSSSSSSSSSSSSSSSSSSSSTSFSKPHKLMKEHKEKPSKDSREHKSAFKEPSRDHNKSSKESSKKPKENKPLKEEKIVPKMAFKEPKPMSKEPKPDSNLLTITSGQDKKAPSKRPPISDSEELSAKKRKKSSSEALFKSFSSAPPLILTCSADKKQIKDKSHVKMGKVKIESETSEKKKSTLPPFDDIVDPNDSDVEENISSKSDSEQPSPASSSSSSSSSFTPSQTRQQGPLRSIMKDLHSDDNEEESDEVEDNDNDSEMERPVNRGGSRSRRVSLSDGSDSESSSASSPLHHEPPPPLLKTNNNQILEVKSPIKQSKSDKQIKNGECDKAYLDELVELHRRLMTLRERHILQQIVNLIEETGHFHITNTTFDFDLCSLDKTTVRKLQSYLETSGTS
rRNA inh HTS OD600 – further read-out of rRNA inh HTS, marked with its call; OD600 change, %; measured here: OD600 growth;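 optical density of the mix in the first replicate; 0 = DMSO median and -100 = no signal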
rRNA inh HTS RFP – recorded beside rRNA inh HTS, whose call it bears; RFP signal change, %; measured here: RFP humanized mutant strains;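 first replicate; 0 = DMSO median and -100 = no signal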
* hit, by the source's call. A portion of the library; count on the stated rates, not on these rows.

Results follow in this order: rRNA inh HTS	rRNA inh HTS OD600	rRNA inh HTS RFP	AF4-AF9 inh
1. C[C@@H]1CN([C@@H](C)CO)C(=O)c2cc(/C=C/c3ccccc3)cnc2O[C@H]1CN(C)C(=O)c1ccc2c(c1)OCO2
    -9.3	-2.6	19.5	13.8
2. CC(C)(C)S(=O)N1Cc2cc(C(=O)NCCCN3CCOCC3)nc(-c3cccc(-c4cc5ccccc5o4)c3)c2[C@@H]1CCO (some centres not stated)
    -34.0	-31.4	25.0	2.7
3. Cc1noc(C)c1NC(=O)Nc1ccc2c(c1)C(=O)N([C@H](C)CO)C[C@@H](C)[C@@H](CN(C)S(=O)(=O)c1cccs1)O2
    3.0	10.0	1.0	-2.8
4. C[C@H]1CN([C@@H](C)CO)C(=O)c2cc(NS(=O)(=O)c3cccs3)ccc2O[C@H]1CN(C)Cc1ccc(C(=O)O)cc1
    -0.5	-1.3	-2.5	-1.8
5. COc1cccc(-c2ccc3c(c2)O[C@H](CN(C)C(=O)C2CC2)[C@H](C)CN([C@@H](C)CO)S3(=O)=O)c1
    -5.1	-14.3	3.0	0.0
6. Cc1cccc(-c2ccc([C@H]3[C@@H](CO)N4CCCCN(C(=O)NC(C)C)C[C@H]34)cc2)c1
    -2.7	2.3	3.2	0.2
7. C[C@@H]1CN([C@H](C)CO)C(=O)c2cccc(NC(=O)Nc3ccc(F)cc3)c2O[C@@H]1CN(C)CC1CC1
    1.2	5.9	-2.3	-3.8
8. COc1ccccc1N(C)S(=O)(=O)c1ccc(C(=O)Nc2cccc(S(=O)(=O)N3CCOCC3)c2)cc1
    -1.7	-3.2	5.2	4.2
9. Cc1ccccc1S(=O)(=O)N1[C@H](C#N)[C@H](c2ccccc2)[C@H]1CO
    -1.2	-3.5	15.0	0.6
10. O=C(C[C@H]1C[C@H]2c3cc(NC(=O)Cc4ccncc4)ccc3O[C@H]2[C@H](CO)O1)NCC1CC1
    -2.6	11.7	-3.6	-2.0
11. C[C@@H]1CN([C@H](C)CO)S(=O)(=O)c2ccc(C#Cc3ccccc3)cc2O[C@H]1CN(C)S(C)(=O)=O
    -6.1	-25.1	11.0	-0.2
12. C[C@@H]1CN([C@@H](C)CO)C(=O)c2cccc(NC(=O)Nc3ccc(F)cc3)c2O[C@@H]1CN(C)Cc1ccncc1
    -3.6	3.2	1.0	-1.5
13. COc1ccc(NC(=O)N(C)C[C@H]2Oc3ccc(NS(=O)(=O)c4cn(C)cn4)cc3CC(=O)N([C@@H](C)CO)C[C@@H]2C)cc1
    9.0	-0.1	3.7	-2.8
14. O=C(C[C@@H]1CC[C@@H]2[C@H](COC[C@@H](O)CN2CC2CCCC2)O1)NCc1ccc(Cl)cc1
    -2.4	-4.3	1.7	-0.7
15. COc1ccccc1-c1ccc2c(c1)O[C@@H](CN(C)C(=O)c1ccncc1)[C@H](C)CN([C@H](C)CO)S2(=O)=O
    0.1	-4.2	-3.2	0.9
16. COc1ccc2c3c(n(C)c2c1)[C@@H](CO)N(Cc1ccccc1Cl)CC31CN(C(C)=O)C1
    -0.9	-0.3	0.0	-0.2
17. O=C(Nc1ccc(-c2ccccc2)cc1)[C@H]1[C@H](CO)[C@H]2Cn3c(cccc3=O)[C@H]2N1CC1CCCC1
    -3.5	-30.8	38.6	8.8
18. Cc1noc(C)c1NC(=O)N(C)C[C@@H]1Oc2ccc(NC(=O)Cn3cnnn3)cc2C(=O)N([C@H](C)CO)C[C@H]1C
    0.2	3.4	1.9	-2.4
19. CC(C)NC(=O)N[C@H]1C=C[C@H](CC(=O)O)O[C@H]1CO
    4.2	2.7	-0.9	-0.7
20. COc1ccc2c3c(n(C)c2c1)[C@@H](CO)N(C(C)=O)CC31CN(Cc2cccnc2)C1
    -1.1	-0.8	-0.6	-0.6
21. Cc1cccc(CN2CCN(C3CN(Cc4cn(Cc5cccc(C(F)(F)F)c5)nn4)S(=O)(=O)C3)CC2)c1 (configuration not stated)
    -34.0	-27.9	-2.3	1.3
22. O=C(c1cccc(F)c1)N1CCCCN2[C@H](CO)[C@@H](c3ccc(-c4ccccc4)cc3)[C@H]2C1
    -58.6	-77.8	-8.7	2.4
23. COC(=O)c1ccc2nc(-c3ccc(F)cc3)c(Cc3ccccc3)n2c1
    -3.6	-11.3	-1.7	-2.1
24. C[C@@H](NC(=O)C[C@H]1C=C[C@@H](NC(=O)c2cccnc2)[C@@H](CO)O1)c1ccccc1
    -0.3	-2.0	1.2	-22.3
25. Cc1noc(C)c1NC(=O)N(C)C[C@@H]1OCCCC[C@@H](C)Oc2ccc(NC(=O)CCC(F)(F)F)cc2C(=O)N([C@H](C)CO)C[C@H]1C
    0.6	1.2	2.2	-0.2
26. Cc1ccccc1C(=O)N1CCC[C@@H]1C(=O)N1CCC[C@H]1C(=O)NCc1ccccc1
    19.0	9.2	-1.8	-0.6
27. CO[C@@H]1CN(C)C(=O)c2ccc(NC(=O)Nc3ccc(F)cc3)cc2OC[C@H](C)NC[C@@H]1C
    -1.9	-1.8	0.4	1.3
28. CN1c2ccccc2SC2C(c3ccccc3)=NOC21 (configuration not stated)
    -4.2	-14.9	-4.5	4.1
29. CO[C@H]1CC[C@H]2CCOc3c(C#N)cccc3C(=O)N(C)C[C@H](C)C(=O)N(C)C[C@H]1O2
    3.7	4.1	-1.5	-1.0
30. C[C@H]1CN([C@@H](C)CO)C(=O)c2cc(NC(=O)Cc3cn(C)c4ccccc34)ccc2O[C@@H]1CN(C)Cc1ccc2c(c1)OCO2
    -2.7	-4.4	4.0	11.9
31. CC1(C(=O)NS(=O)(=O)C2CC2)CCN(C(=O)c2ccc3ccccc3n2)C1 (configuration not stated)
    2.0	-29.6	0.4	-3.9
32. CC(C)CC#Cc1ccc2c(c1)O[C@@H](CN(C)C(=O)c1ccncc1)[C@@H](C)CN([C@H](C)CO)S2(=O)=O
    0.0	8.3	2.4	0.1
33. C[C@@H]1CCCCO[C@@H](CN(C)C(=O)C2CCCCC2)[C@@H](C)CN([C@@H](C)CO)C(=O)c2cc(NC(=O)c3ccccc3)ccc2O1
    -0.1	-5.4	0.0	-1.0
34. O=C(NCC[C@H]1CC[C@@H](NC(=O)C2CCC2)[C@H](CO)O1)c1ccc(F)cc1
    2.0	3.8	-0.8	-4.0
35. CC(C)NC(=O)Nc1ccc2c(c1)C(=O)N([C@H](C)CO)C[C@H](C)[C@H](CN(C)Cc1ccc(Cl)c(Cl)c1)O2
    -2.0	-37.7	12.8	-3.5
36. COc1ccc(S(=O)(=O)N(C)C[C@@H]2OCCCC[C@H](C)Oc3ccc(NS(=O)(=O)c4ccc(F)cc4)cc3C(=O)N([C@H](C)CO)C[C@H]2C)cc1
    -0.1	1.7	-0.6	0.2
37. CCCCNC(=O)C1(C)CCCCN1Cc1ccccc1-c1ccccc1 (configuration not stated)
    -8.3	-8.5	1.4	2.0
38. COc1cccc(S(=O)(=O)N[C@@H]2CC[C@H](CC(=O)NCc3ccccc3)O[C@@H]2CO)c1
    -2.6	0.0	3.9	-0.3
39. Cc1ccc(NC(=O)Cn2nc(C(=O)O)c3ccccc3c2=O)cc1S(=O)(=O)N1CCCCCC1
    6.5	12.0	-0.5	-0.8
40. CCCC#Cc1ccc2c(c1)O[C@@H](CN(C)C(=O)c1cccnc1)[C@@H](C)CN([C@H](C)CO)S2(=O)=O
    -5.9	-12.9	-1.6	0.8
41. C[C@@H](C(=O)N(C)C[C@H]1OCc2ccccc2-c2ccccc2C(=O)N([C@@H](C)CO)C[C@@H]1C)c1ccccc1
    -2.1	6.7	-2.2	-1.3
42. COc1cccc(CNC(=O)C2CCN(S(=O)(=O)c3ccc4c(c3)C(C)(C)C(=O)N4C)CC2)c1
    -4.8	3.5	3.1	-2.6
43. C#CCN(Cc1ccco1)C(=O)c1nnc2c3cc(OC)ccc3n(S(=O)(=O)c3ccc(OC)cc3)c2n1
    7.3	8.5	10.3	1.7
44. O=C(C[C@H]1CC[C@@H]2[C@H](COC[C@H](O)CN2Cc2ccccc2)O1)NCc1ccccc1Cl
    -0.3	3.0	0.3	-1.8
45. C[C@H]1CN([C@@H](C)CO)C(=O)Cc2cc(NC(=O)c3ccncc3)ccc2O[C@H]1CN(C)C
    4.8	9.9	1.0	0.2
46. CCC(=O)N1CCC(C)(C(=O)NCc2ccc(F)cc2)C1 (configuration not stated)
    1.1	9.2	1.3	0.1
47. CO[C@H]1CN(C)C(=O)c2cc(NC(=O)Nc3cccc(F)c3)ccc2OC[C@H](C)N(C(=O)Nc2c(C)noc2C)C[C@H]1C
    -1.9	-3.0	1.5	2.9
48. CC(C)C#Cc1cnc2c(c1)C(=O)N([C@H](C)CO)C[C@H](C)[C@@H](CN(C)C(=O)Nc1ccccc1F)O2
    2.5	0.5	0.6	-2.2
49. CC(=O)c1ccc(S(=O)(=O)NCC2CCN(C(=O)C(=O)c3cc4ccccc4o3)CC2)cc1
    -3.6	-2.2	1.2	-0.2
50. CCCNC(=O)C1(C)CCN(C(=O)/C=C/c2ccccc2)C1 (configuration not stated)
    8.0	14.7	-1.7	-0.3
51. CC(=O)Nc1cc(-c2cccc(N)c2)cn2c(-c3ccc(C(C)=O)cc3)cnc12
    4.5	16.2	0.1	-6.9
52. CCCCN1C(=O)C(CC(=O)NCc2ccco2)CC(C(=O)N(C)C)=C1C (configuration not stated)
    10.9	15.6	-2.0	-0.7
53. COc1cccc(CNC(=O)[C@H]2CCCN2C(=O)[C@H]2CCCN2C(=O)c2ccc(F)c(C(F)(F)F)c2)c1
    5.6	2.6	2.3	-1.9
54. COCC(=O)Nc1ccc2c(c1)OC[C@H](C)N(CC1CC1)C[C@H](C)[C@H](OC)CN(C)C2=O
    1.2	2.1	0.4	-3.2
55. O=C(c1ccc2c(c1)OCO2)N1CCCCN2[C@H](C1)[C@H](c1ccc(-c3ccccc3)cc1)[C@@H]2CO
    -28.1	-54.4	5.1	-3.9
56. Cc1ccc(S(=O)(=O)N(C)C[C@@H]2OCCCC[C@H](C)Oc3ccc(NC(=O)Nc4ccc(F)cc4)cc3C(=O)N([C@@H](C)CO)C[C@@H]2C)cc1
    1.6	-1.4	1.9	0.5
57. OC(c1ccc(F)cc1)c1nc(-c2ccccc2)cs1 (configuration not stated)
    10.0	8.8	-1.3	-5.0
58. CC(C)NC(=O)Nc1ccc2c(c1)C(=O)N([C@@H](C)CO)C[C@@H](C)[C@H](CN(C)Cc1ccc(C(=O)Nc3ccccc3N)cc1)O2
    1.3	0.0	-0.6	0.1
59. O=C(CCN1CCCCC1)N[C@H]1CC[C@@H](CCNS(=O)(=O)c2ccc(F)cc2)O[C@@H]1CO
    3.7	1.2	-1.6	1.1
60. COc1ccccc1S(=O)(=O)N[C@H]1CC[C@H](CCn2cc(C3CCCC3)nn2)O[C@@H]1CO
    -0.4	1.6	-1.1	-1.8

Record cards (already shown).
Shown for CC(C)C#Cc1cnc2c(c1)C(=O)N([C@H](C)CO)C[C@H](C)[C@@H](CN(C)C(=O)Nc1ccccc1F)O2 = rRNA inh HTS = 2.5; rRNA inh HTS OD600 = 0.5; rRNA inh HTS RFP = 0.6; AF4-AF9 inh = -2.2
Shown for Cc1ccc(NC(=O)Cn2nc(C(=O)O)c3ccccc3c2=O)cc1S(=O)(=O)N1CCCCCC1 = rRNA inh HTS = 6.5; rRNA inh HTS OD600 = 12.0; rRNA inh HTS RFP = -0.5; AF4-AF9 inh = -0.8

The listing picks up, repeating the two entries before the break.
Results follow in this order: rRNA inh HTS	rRNA inh HTS OD600	rRNA inh HTS RFP	AF4-AF9 inh
59. O=C(CCN1CCCCC1)N[C@H]1CC[C@@H](CCNS(=O)(=O)c2ccc(F)cc2)O[C@@H]1CO
    3.7	1.2	-1.6	1.1
60. COc1ccccc1S(=O)(=O)N[C@H]1CC[C@H](CCn2cc(C3CCCC3)nn2)O[C@@H]1CO
    -0.4	1.6	-1.1	-1.8
61. COc1ccc(C(c2nnnn2-c2c(C)cccc2C)N2CCN(C/C=C/c3ccccc3)CC2)cc1 (configuration not stated)
    -3.4	-4.2	-12.8	9.7
62. O=C(NCc1cccnc1)c1cc(C2CCCN(S(=O)(=O)c3cccs3)C2)on1 (configuration not stated)
    4.0	3.9	0.9	0.7
63. C[C@H]1CN([C@@H](C)CO)C(=O)Cc2cc(NC(=O)CCC(F)(F)F)ccc2O[C@H]1CN(C)C
    8.4	3.2	-2.7	-1.4
64. CC(C)CC#Cc1ccc2c(c1)O[C@@H](CN(C)C(=O)C1CCOCC1)[C@H](C)CN([C@@H](C)CO)S2(=O)=O
    -1.5	-20.6	0.0	-1.0
65. CN(C)C(=O)CSc1nnc(-c2ccco2)n1-c1ccccc1
    15.6	4.0	2.8	-5.5
66. COc1ccc(NC(=O)N[C@H]2CC[C@@H](CCNC(=O)Cc3ccncc3)O[C@H]2CO)cc1
    3.1	2.9	0.7	0.1
67. C[C@@H]1CCCCO[C@H](CN(C)C)[C@@H](C)CN([C@H](C)CO)C(=O)c2cc(NC(=O)CCC(F)(F)F)ccc2O1
    4.2	5.8	0.7	0.6
68. COc1ccc2c3c(n(C)c2c1)[C@@H](CO)N(C(=O)Nc1ccc(F)cc1)CC31CN(C(=O)Cc2ccncc2)C1
    -4.4	-4.7	-3.8	5.4
69. COc1ccc(CN(C)C[C@@H]2OCCCC[C@@H](C)Oc3ccc(NS(C)(=O)=O)cc3C(=O)N([C@H](C)CO)C[C@@H]2C)cc1
    -0.8	4.5	-1.5	-5.5

Copied from the list:
For rRNA inh HTS RFP, no. 63 has the entry -2.7
For rRNA inh HTS, no. 67 has the entry 4.2
For rRNA inh HTS OD600, no. 69 has the entry 4.5
